Bioassay records as filed in PubChem.
INS promoter inh: inhibitors of insulin promoter-driven GFP, primary screen, imaging, TRM-6 cells (human fetal islet line), eGFP reporter, cell count. reporter expression induced with tamoxifen. inhibition, % at 2 µM. 130,000 compounds, 0.9% hits. AID 1273, 2008;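 active means inhibition above the mean plus 3 SD, with well images judged a real hit on visual review, cut at about 60% in these data, passing the limit was not always enough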
HSV augment: enhancers of HSV replication in host cells, fold increase, host cell viability. 220,000 compounds, 0.005% hits. HSV replication augmentation in cells. AID 1956, 2009. maximum fold increase;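 active means peak rise of 1.5-fold or more in the series; tested in PC3 cells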;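 further: first round at 10 µM; read as green reporter fluorescence; hits show the peak of a series up to 25 µM; 1 = signal of infected wells without compound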
GALR2 agonist: GALR2 receptor agonists, primary screen, cell-based; GALR2-expressing cells, agonist activation read-out; activation, %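 (tested at 5 µM)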; 140,000 compounds, 0.48% hits;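 active means above mean plus 3 SD of all compounds, about 5% in these data, not always enough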;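 further: 0% = vehicle buffer wells and 100% = reference agonist at full effect; tested in CHO reporter cells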
Target sequence (O43603 whole entry, looked up): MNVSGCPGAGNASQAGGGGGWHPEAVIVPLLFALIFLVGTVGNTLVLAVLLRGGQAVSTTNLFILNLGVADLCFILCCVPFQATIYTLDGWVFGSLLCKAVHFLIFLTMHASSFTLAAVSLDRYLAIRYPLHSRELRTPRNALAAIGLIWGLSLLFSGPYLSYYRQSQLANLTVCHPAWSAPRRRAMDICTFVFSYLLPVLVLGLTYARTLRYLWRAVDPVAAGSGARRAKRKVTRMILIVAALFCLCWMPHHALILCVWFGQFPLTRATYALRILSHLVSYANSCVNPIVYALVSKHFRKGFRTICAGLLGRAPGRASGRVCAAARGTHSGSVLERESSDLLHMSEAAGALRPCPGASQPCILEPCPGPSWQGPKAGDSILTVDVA
PKD1 inh: inhibitors of human PKD1 kinase, biochemical, fluorescence polarization; Serine/threonine-protein kinase D1 (Homo sapiens), Q15139; PKD1 kinase fluorescence polarization assay; inhibition, %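 (about 10 µM by stock and volumes)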; 200,000 compounds, 0.056% hits;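 active means inhibition of 50% or more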;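 further: controls were vehicle for no effect and a reference inhibitor for full effect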
RGS16-Gao: modulators of RGS16 binding to Galphao, primary screen, biochemical, human proteins, multiplexed bead flow cytometry; Regulator of G-protein signaling 16 (Homo sapiens) + Guanine nucleotide-binding protein …; bead-based flow cytometry RGS16-Galphao binding, fluorescence; actives lie on both sides; binding response (% of control), % at 10 µM; 220,000 compounds, 0.38% hits; AID 1441, 2008;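 active means below 25% or above 175%, edge rows of some plates excepted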;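 further: Galphao activated by GDP with aluminum fluoride before binding; 100% = wells without compound and 0% = beads without RGS; some results beyond the cut were filed as inactive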
Target sequence (O15492 whole entry, looked up): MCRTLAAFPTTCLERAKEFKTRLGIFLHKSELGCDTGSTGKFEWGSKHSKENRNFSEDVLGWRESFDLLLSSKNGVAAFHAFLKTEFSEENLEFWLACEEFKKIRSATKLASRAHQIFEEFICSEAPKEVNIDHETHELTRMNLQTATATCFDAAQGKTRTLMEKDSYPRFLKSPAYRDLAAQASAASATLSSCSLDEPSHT
Target sequence (P09471 whole entry, looked up): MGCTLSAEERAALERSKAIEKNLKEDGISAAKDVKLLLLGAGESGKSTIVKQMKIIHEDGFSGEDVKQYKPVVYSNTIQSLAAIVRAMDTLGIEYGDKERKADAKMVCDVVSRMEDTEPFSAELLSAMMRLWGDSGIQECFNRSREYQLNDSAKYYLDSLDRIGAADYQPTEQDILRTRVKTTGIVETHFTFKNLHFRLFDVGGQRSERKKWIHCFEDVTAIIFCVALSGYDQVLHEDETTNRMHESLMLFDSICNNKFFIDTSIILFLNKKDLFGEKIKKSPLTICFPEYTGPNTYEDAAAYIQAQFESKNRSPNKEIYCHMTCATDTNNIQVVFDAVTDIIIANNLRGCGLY
INS promoter inh cell count: also measured in INS promoter inh; calls as there; normalized cell count, %; measured here: cell count, toxicity; reference of the scale not given here;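 cells exposed to compound for 48 h; stained nuclei by imaging scaled within each plate; lower means fewer cells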
HSV augment primary fold: second read-out of HSV augment, no call of its own (marks repeat the call); fold increase; compound at 10 µM; measured here: primary screen fold increase 10 uM; tested in PC3 cells;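 GFP signal in the first replicate; 1 = infected wells without compound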
Numbers without * were called inactive; i = inactive; x = no result given.

Molecule,INS promoter inh,INS promoter inh cell count,HSV augment,HSV augment primary fold,GALR2 agonist,PKD1 inh,RGS16-Gao
CCOc1ccc(NC(=O)COc2ccc(C(=O)NC3CCCc4ccccc43)cc2OC)cc1 (stereo not drawn),12,94,i,0.82,-0.2,-3,99
CCCCOC(=O)c1ccc(NC(=O)/C=C/c2cccs2)cc1,x,x,i,0.97,-1.4,0,104
COc1ccc(C(=O)C2CCCN(Cc3cnc(N4CCCC4)s3)C2)cc1OC (stereo not drawn),x,x,i,0.95,x,-5,107
CC(=O)C1=C(O)C(=O)N(c2ccc(S(N)(=O)=O)cc2)C1c1ccccc1F (stereo not drawn),-6,91,i,0.94,-2.1,3,107
O=C(C[n+]1ccccc1)Nc1ccc(Oc2ccccc2)cc1,x,x,i,0.85,x,-2,108
CCN(CC(=O)Nc1ccc(C(=O)Nc2ccc(OC)cc2)cc1)Cc1nc2ccccc2c(=O)[nH]1,x,x,i,0.93,x,x,110
C/C(CCc1ccc2c(c1)OCO2)=N\NC(=O)c1ccccc1,13,72,i,1.1,1.1,-1,112
CN(C)CC(CCCCC(CN(C)C)C(=O)c1ccccc1)C(=O)c1ccccc1 (stereo not drawn),x,x,i,0.66,x,x,90
Cc1c(C(=O)Nc2ccncc2)oc2c1C(=O)CC(C)(C)C2,-357,36,i,0.94,1.0,-1,108
Cc1ccccc1C(=O)NC(CC(C)C)C(=O)OCc1cc(=O)n2cc(Br)ccc2n1 (stereo not drawn),7,159,i,0.95,-1.2,-5,104
Cc1ccc(S(=O)(=O)NC2=NCN(Cc3cccnc3)CN2)cc1,x,x,i,0.82,-2.9,-9,108
Cc1ccccc1Cn1cnc2c(oc3ccccc32)c1=O,41,122,i,0.95,x,-5,99
Clc1ccccc1CSC1=NCCCN1,20,98,i,1.2,-0.8,-6,102
Cc1ccc(C(=O)OC/C(O)=C(\C#N)c2nc3ccccc3[nH]2)cc1S(=O)(=O)N1CCOCC1,x,x,i,1.2,0.8,-4,99
CCC1CCCCN1C(=S)NC(=O)c1ccc(F)c(S(=O)(=O)N2CCOCC2)c1 (stereo not drawn),x,x,i,0.92,x,2,102
CC(C)Nc1nc(N)c(C(=O)C23CC4CC(CC(C4)C2)C3)s1,x,x,i,0.8,x,x,104
CCOC(=O)C1CCC(CNCc2ccc(Cl)cc2)CC1 (stereo not drawn),-20,98,i,1,0.3,-15,100
CCCCn1nnc(NC(=O)CCC)n1,36,84,i,0.84,0.0,-7,101
O=C(COc1ccc(S(=O)(=O)N2CCCC2)cc1Cl)NCc1ccco1,-53,168,i,1,-3.2,-2,100
O=c1c2c(nc3nc(NCc4cccc5ccccc45)[nH]n13)CCC2,-64,105,i,0.91,x,-2,134
O=C(CSc1nc2ccccc2c(=O)n1-c1ccc(F)cc1)Nc1cc(S(=O)(=O)N2CCOCC2)ccc1Cl,-23,91,i,0.91,-0.6,13,119
Cc1ccc2[nH]c(=O)c(CN(CCCO)S(=O)(=O)c3cccc4nsnc34)cc2c1,x,x,i,0.83,-0.2,12,105
O=C(NCCN1CCOCC1)Nc1ccc(Cl)cc1,53,117,i,1.1,-1.4,-9,97
O=C1NC(=S)N/C1=C/C=C/c1ccccc1,-9,93,i,0.83,x,-4,122
COc1ccc(CCNC(=O)/C(C#N)=C2\N=C(NC(=O)c3ccco3)c3ccccc32)cc1,x,x,i,1.1,x,x,97
C=C(C)CN1CCN(c2ccc(N3C(=O)CCCC3=O)cc2[N+](=O)[O-])CC1,-8,139,x,x,x,10,105
C=CCn1c(Cc2cccs2)nnc1SCC(=O)c1ccc(F)cc1,17,125,i,1,0.4,-4,109
COCC(C)NC(=O)c1cc(OC)cc(OC)c1 (stereo not drawn),x,x,i,0.95,x,0,96
CC(C)c1ccccc1NC(=S)NC1CCN(Cc2ccccc2)CC1,x,x,i,0.82,1.3,-4,103
N#Cc1c(N)n(C2CCCCC2)c2nc3ccccc3nc12,x,x,i,0.94,17*,1,103
Cc1ccnc(N2CCN(C(=O)CSc3nc4ccccc4nc3N3CCCCC3)CC2)c1,-34,79,i,0.97,-0.2,2,96
COC(=O)C1CCN(C(=O)Nc2ccc(OC)cc2)CC1,-24,167,i,0.99,-1.1,-7,101
Cc1ccc(S(=O)(=O)N2CCCN(S(=O)(=O)C3CCS(=O)(=O)C3)CC2)cc1 (stereo not drawn),-12,71,i,0.82,0.5,-4,109
Cc1ccsc1C(=O)OCC(=O)Nc1cccc(S(=O)(=O)NC2=NCCCCC2)c1,18,125,i,1.1,x,-1,102
Cc1cc2c(NS(=O)(=O)c3ccc(F)cc3)cccc2nn1,x,x,i,1.1,x,x,109
CC(C)(C)NC(=O)CN(C(=O)C(=O)Nc1ccc2c(c1)OCCO2)C(C)(C)C,x,x,i,0.91,x,0,99
C=CCN(Cc1cn(C)nc1-c1cccc(Cl)c1)C1CCS(=O)(=O)C1 (stereo not drawn),x,x,i,0.94,x,-2,95
O=C(COC(=O)CC(c1ccccc1)c1ccccc1)NCc1ccc(Cl)cc1,-38,102,i,0.87,-0.1,6,99
C=CCSc1nnnn1-c1ccc(OC)cc1,37,151,i,0.81,-3.8,-3,95
Cc1noc(C)c1COc1ccc(C(=O)OCC(=O)Nc2ccc3c(c2)OCO3)cc1,-14,208,i,1.1,-2.8,-2,100
COc1cccc(OCCN2CCN(c3ncnc4c3cnn4-c3ccccc3)CC2)c1,x,x,i,0.99,-3.3,-3,105
COc1ccc(OC)c(C2=Nn3c(nnc3-c3cc(OC)c(OC)c(OC)c3)SC2)c1,x,x,i,0.89,0.5,-3,106
CCN(CC)S(=O)(=O)c1ccc(Cl)c(C(=O)Nc2cc(C)nn2-c2ccccc2)c1,-23,89,i,1,-0.9,-4,119
O=C(COC(=O)/C=C/c1ccc(Cl)cc1Cl)NCCC1=CCCCC1,x,x,i,1.1,-0.7,-5,74
CCC1(C)Nc2ccccc2C(=O)N1O (stereo not drawn),-18,172,i,1,-1.9,-2,109
Cc1cccc(NC(=O)c2ccc(C(=O)c3ccccc3)o2)c1,0,92,i,1.1,x,1,102
COC(=O)c1cccc(CSc2nnc(-c3ccco3)n2-c2ccccc2)c1,-22,144,x,x,0.4,2,118
CCCCN(CCCC)Cc1cc2ccccc2c2c1COC2,-24,89,i,1,-0.9,-4,104
CCc1sc(N(C(=O)Cc2ccccc2)c2cccc(F)c2)nc1-c1ccc(C)cc1,12,91,i,1.1,-1.9,-3,99
CC1CCN(Cc2c(O)ccc3c(=O)c(-c4nc5ccccc5s4)c(N)oc23)CC1,-12,71,i,0.87,-0.8,11,78

Compounds listed so far with an NH in an aromatic ring, in the order listed:
Molecule,INS promoter inh,INS promoter inh cell count,HSV augment,HSV augment primary fold,GALR2 agonist,PKD1 inh,RGS16-Gao
CCN(CC(=O)Nc1ccc(C(=O)Nc2ccc(OC)cc2)cc1)Cc1nc2ccccc2c(=O)[nH]1,x,x,i,0.93,x,x,110
Cc1ccc(C(=O)OC/C(O)=C(\C#N)c2nc3ccccc3[nH]2)cc1S(=O)(=O)N1CCOCC1,x,x,i,1.2,0.8,-4,99
O=c1c2c(nc3nc(NCc4cccc5ccccc45)[nH]n13)CCC2,-64,105,i,0.91,x,-2,134
Cc1ccc2[nH]c(=O)c(CN(CCCO)S(=O)(=O)c3cccc4nsnc34)cc2c1,x,x,i,0.83,-0.2,12,105

Additional results.
Molecule,INS promoter inh,INS promoter inh cell count,HSV augment,HSV augment primary fold,GALR2 agonist,PKD1 inh,RGS16-Gao
O=C(C1CCC(CNc2nc(=S)[nH]c3ccccc23)CC1)N1CCN(c2ccc(F)cc2)CC1 (stereo not drawn),-8,39,i,0.87,x,12,110
CC(=O)OCC(CCn1cnc2cnc(N)nc21)COC(C)=O,x,x,i,0.82,x,x,98
CC(=O)Nc1ccc2[nH]c(C)cc(=O)c2c1,-42,85,i,1,-1.0,-1,101
CCOC(=O)N1CCC(NS(=O)(=O)c2ccc3c(c2)oc(=O)n3C)CC1,x,x,i,0.89,-2.5,0,105
COc1ccc(CCN(Cc2cc3cc(C)cc(C)c3nc2Cl)C(=O)C2CC2)cc1,x,x,x,x,-1.5,-13,103
CN1CCN(CCCCOc2ccccc2C=O)CC1,x,x,i,0.82,x,-8,104
CC(=O)Nc1ccc(-c2csc(NNC(=O)c3ccccc3)n2)cc1,x,x,i,1.1,x,2,102
COC(=O)c1ccc(C)c(NC(=O)CCNC(=O)c2ccc([N+](=O)[O-])cc2)c1,x,x,i,0.99,-2.0,-2,102
Cc1nc2ccc(NC(=O)c3ccc([N+](=O)[O-])cc3[N+](=O)[O-])cc2s1,x,x,i,1,x,-1,84
O=S(=O)(c1cccc(NC(=S)N2CCN(c3ccccc3F)CC2)c1)C(F)F,x,x,i,1.2,-1.0,6,97
O=C(CCCOc1ccccc1)OCn1nnc2ccccc2c1=O,7,120,x,x,x,-7,102
Cn1c(=O)c2c(ncn2Cc2ccccc2)n(C)c1=O,-120,112,i,0.99,-1.9,-2,102
Cc1ccc(C)c2[nH]c(=O)c(CCNC(=O)c3ccc(S(=O)(=O)N(C)C)cc3)cc12,x,x,i,0.94,-0.6,4,96
CC(CCc1ccccc1)NC(=O)c1cccnc1 (stereo not drawn),-29,84,i,0.83,-0.4,-4,95
CC(C)CC(COCc1cccc(C(F)(F)F)c1)N1CCN(C(=O)c2cccc(C(F)(F)F)c2)CCC1=O (stereo not drawn),-59,95,i,0.94,-1.9,-5,106
C/C(=N\NC(=O)C1CC1c1ccccc1)c1ccc(C)s1 (stereo not drawn),x,x,i,1,-1.2,10,103
Cn1cc(CC(=O)NCCCN2CCCC2)c2ccccc21,i,47,i,1,0.4,-12,96
Cc1nnsc1NC(=O)OCc1ccc(Cl)cc1Cl,-13,98,i,1.1,-1.2,11,98
N#Cc1c(/N=C/N2CCOCC2)sc2c1CCCCC2,x,x,i,1,-3.3,-11,95
Cc1ccc(CC2SC(N)=NC2=O)cc1 (stereo not drawn),x,x,i,0.82,x,-5,111
CCOC(=O)Cc1csc(NC(=O)Cn2cnc3c2c(=O)n(C)c(=O)n3C)n1,37,69,i,0.86,x,1,58
O=C(Nc1nc2c(s1)CN(Cc1ccccc1)CC2)C1CCCC1,x,x,i,0.83,x,0,105
CCOc1ccc(S(=O)(=O)N(CC(=O)Nc2cc(C)on2)Cc2ccccc2Cl)cc1,3,93,i,1.1,-0.2,-5,105
OCC1(CCc2ccccc2)CCN(Cc2c(F)ccc(F)c2F)CC1,-22,192,i,0.99,x,-2,105
CC(=O)Nc1ccc(C(=O)N/C(=C\c2ccccc2)C(=O)Nc2cccc(C(=O)O)c2)cc1,x,x,i,0.81,x,x,99
CC(O)CNc1nc2ccccc2n1-c1ncnc2sc3c(c12)CCC3 (stereo not drawn),x,x,i,0.75,-0.5,-1,97
O=C1C=C(NNC(=O)c2cccnc2)CC(c2ccco2)C1 (stereo not drawn),-31,59,i,1.2,x,-2,102

A few values from the entries so far:
O=C(NCCN1CCOCC1)Nc1ccc(Cl)cc1 – HSV augment primary fold: 1.1
COC(=O)c1ccc(C)c(NC(=O)CCNC(=O)c2ccc([N+](=O)[O-])cc2)c1 – GALR2 agonist: -2.0
O=C(CCCOc1ccccc1)OCn1nnc2ccccc2c1=O – PKD1 inh: -7
CCCCn1nnc(NC(=O)CCC)n1 – PKD1 inh: -7
CC(=O)Nc1ccc(-c2csc(NNC(=O)c3ccccc3)n2)cc1 – PKD1 inh: 2

Outcome played no part in choosing rows. Share with any hit: about 1.3%.
